Screening data (PubChem)
Mtb hypoxia rep: reduces hypoxia-regulated biosensor signal in M. tuberculosis. M. tuberculosis hypoxia-regulated fluorescent reporter, fluorescence. fluorescence inhibition, % (concentration not given with the values). 300,000 compounds, 0.1% hits. AID 1159583;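 active = 35 to 45% if threefold the growth effect, above 45% if 1.5-fold the growth effect; inactive = the rest, general growth blockers included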;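 also: wells of about 50 µL received 100 nL stock; 0% = vehicle wells and 100% = reference inhibitor wells; whole bacteria with a GFP reporter of the hypoxia response; strong numbers were not always called active; many hits fall short of the cut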
ugtP null kill: kills S. aureus RN4220 lacking UgtP. growth inhibition, % (concentration not given with the values). AID 1259309. S. aureus RN4220 ugtP deletion, OD600 growth, 16 h; some inactives read as strong as hits. 330,000 compounds, 0.54% hits;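 active = z-score under -3 and OD600 up to 0.15 on both plates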;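 also: plate controls were untreated wells for no effect and antibiotic for full effect; wells of about 80 µL received 100 nL stock; the first replicate is given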
RN4220 kill: S. aureus RN4220 growth inhibition | inhibition, % (concentration not given with the values) | 330,000 compounds, 0.33% hits | OD600, 16 h;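 active = z-score of -3 or lower and OD600 up to 0.18 on both plates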;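 also: plate controls were untreated cells for no effect and reference antibiotic for full effect; stock transfer was 100 nL into about 80 µL; one replicate is shown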
PrP UTR inh: inhibition of PrP 5' UTR reporter expression; 340,000 compounds, 0.35% hits; inhibition, % (no concentration beside the values); cell-based PrP 5' UTR mRNA reporter, plate reader;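 active = every replicate at 50% or more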;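 also: 0 = median of the neutral control wells; tested in H4 reporter cells; numbers are from one replicate; inactives centre near -14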
BJeLR lethal: kills HRASV12-expressing BJeLR cells; BJeLR (HRASV12) viability, CellTiter-Glo ATP luminescence, 48 h; reference of the scale not given here; inhibition, % (concentration not given with the values); 300,000 compounds, 0.17% hits;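 active = replicate mean above 50%; inconclusive = above 50% but judged a plate artefact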;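 also: 50 nL library stock added to about 25 µL; numbers are from one replicate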
Autofluor counter: flagged as autofluorescent in microsphere protease counterscreen | 360,000 compounds, 3.1% hits | fluorescence intensity (no concentration beside the values) | AID 624483 | compound autofluorescence counterscreen, microsphere flow cytometry; hits give high values;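 active = at least 3 SD above the mean of all compounds, about 16000 in these data; inconclusive = too few beads counted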;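 also: 100 nL of 1 mM stock went into each well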
Mtb hypoxia rep growth: further read-out of Mtb hypoxia rep, marked with its call; growth inhibition, %; measured here: M. tuberculosis growth (absorbance);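 0% = vehicle and 100% = reference antibiotic; read after six days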
Starred values were filed as active, the others as inactive; ? = inconclusive; · = no result given.

SMILES	Mtb hypoxia rep	Mtb hypoxia rep growth	ugtP null kill	RN4220 kill	PrP UTR inh	BJeLR lethal	Autofluor counter
Cc1cc(C)cc(NC(=O)Cc2ccc(NC3=NC4CS(=O)(=O)CC4S3)cc2)c1 (stereo not drawn)	-2	-1	-1	8.4	-4	-8	6482
CNc1nc(SC)nc(N2CCOCC2)n1	·	·	3	1.5	-17	-16	4243
COc1cc(NC(=O)CSc2nc3c(c(=O)[nH]2)CCCC3)cc(OC)c1OC	2	7	11	7.7	-13	-1	4544
Cc1ccccc1-c1ccc(CN2CCN(C)C(CCO)C2)cc1 (stereo not drawn)	9	16	6	4.2	-25	-5	3984
COc1cc(SC)ccc1C(=O)NCCOc1ccc(Cl)cc1	7	8	1	4.3	-26	10	2391
Cn1c(-c2ccccc2O)cc2ccccc21	·	·	8	-1.3	-13	4	5816
Cc1ccc2[nH]c(=O)c(CN(Cc3ccc4c(c3)OCO4)Cc3nnnn3C3CCCC3)cc2c1	3	3	-8	5.2	-13	2	6166
O=C(CNC(=O)c1ccc2c(c1)OCO2)NN=Cc1cccc([N+](=O)[O-])c1	14	-3	8	4.4	·	·	·
CCS(=O)(=O)NCCCCc1ccccc1	6	7	8	2.5	-14	17	3752
O=C(O)c1ccc(COc2ccccc2/C=C2\NC(=O)N(Cc3ccccc3)C2=O)cc1	5	9	11	13	-15	-6	3393
O=C(CCc1ccccc1)NNC(=O)Cc1ccccc1	6	-4	3	4.1	-16	5	4252
COc1cc(OC)c(C(=O)OCC(=O)NCC2CCCCC2)cc1OC	3	-9	6	2.0	-24	·	·
COC(=O)Nc1nnc(-c2ccco2)s1	8	6	7	3.0	·	-4	·
COc1ccc(C(=O)NCc2ccc(C(=O)NCC(OC)OC)cc2)cc1OC	8	11	2	7.4	-7	-9	4481
CC(C)(C)C(=O)Nc1ccc(C(=O)NNC(=O)Cc2ccccc2)cc1	1	-3	1	-22	-13	-11	3326
c1ccc(-n2nnnc2NCCCN2CCOCC2)cc1	·	·	-2	1.7	-30	-15	2467
CN1CCN(C(=O)NCC23CC4CC(CC(C4)C2)C3)CC1	-2	2	4	-2.2	-20	4	3964
CCOc1ccc(CCNC(=O)C2CCCN(c3nn4c(=O)cc(C)nc4s3)C2)cc1 (stereo not drawn)	8	7	9	3.1	-4	9	2759
O=C(O)CNC(=O)CCCn1nnc2ccccc2c1=O	-2	3	3	0.5	-16	-2	4085
Cc1ccc(Nc2ccc(N)cc2S(=O)(=O)O)cc1	3	-8	13	4.7	-36	-1	3460
Cc1nc2ccc(C(=O)NN=Cc3ccccc3O)cc2[nH]1	3	0	-2	-0.3	·	·	·
O=C(Nc1ncnc2sc3c(c12)CCCCC3)c1ccco1	-6	1	5	9.6	-17	8	2923
CC1(c2nnc(-c3cccc(Cl)c3)o2)CC(c2cccc(Cl)c2)=NO1 (stereo not drawn)	12	8	3	3.4	-11	10	3240
COc1ccc(CCC2(C)OCC(CCCCO)O2)cc1 (stereo not drawn)	1	-1	3	0.1	-6	·	2707
CCOc1cc(C)c(C(C)C)cc1S(=O)(=O)n1ccc(C)n1	·	·	-4	7.5	-17	-6	4750
CCCn1c(=O)c2ccccc2n2c(SCCNCCO)nnc12	4	12	-7	2.9	-18	-10	4079
CC1CN(C)C(C)c2c1oc1ccc(N)cc21 (stereo not drawn)	5	0	-9	-5.8	-9	·	3454
CCC(=O)c1ccc(N2CCCCC2)c(F)c1	10	7	-6	12	-46	-6	2659
CN1/C(=C\C=N\NC(=O)c2ccccc2Br)C(C)(C)c2ccccc21	·	·	·	·	-25	5	10657
Cc1cccc(-n2c(SCC(=O)NCc3ccc4c(c3)OCO4)nc3ccccc3c2=O)c1	-4	7	-3	-2.3	-15	-2	2499
Cc1ccccc1NC(=O)NC1CCCCCCC1	6	5	5	2.6	-12	4	4349
C[C@H](NS(=O)(=O)c1ccc(Cl)cc1)C(=O)OCC(=O)NC(=O)Nc1ccc2c(c1)OCCO2	9	8	0	1.7	-27	-10	2195
Fc1ccc(-c2cc(-c3ccccc3)nc(-n3cccn3)n2)cc1	-2	9	-12	4.4	-6	-3	2456
COc1ccc(Cl)cc1NC(=O)Cc1c(F)cccc1Cl	11	-2	2	0.0	6	-5	9174
Cc1cc(NC(=O)NC(=O)c2ccccc2)no1	2	3	-1	0.2	-41	6	4356
COc1ccc2nc(-c3ccccn3)[nH]c2c1	-3	11	0	2.3	-67	13	3455
Cc1nc2ccccc2nc1SCC(=O)N1CCC(C)CC1	9	16	-4	3.8	-7	4	9266
Cc1cccc(N2CCN(C(=O)c3ccc4ccccc4c3)CC2C)c1 (stereo not drawn)	7	2	8	-1.8	-20	·	4094
c1ccc2nc3c(cc2c1)CCCCC3	4	11	-4	16	1	-2	4413
CCN(CC)Cc1c(CC(C)C)oc(C)c1C(=O)O	8	10	-4	9.8	-24	-3	8216
O=[N+]([O-])c1ccc(S(=O)(=O)Nc2nc(-c3ccccc3)cs2)cc1	-3	-2	-5	3.1	-5	-7	2797
CC(C)C(NC(=O)c1ccccc1)C(=O)OCC(=O)N1CCCCC1 (stereo not drawn)	6	-2	6	1.6	-22	·	·
COc1ccc(OC2CCN(S(=O)(=O)c3ccc(F)cc3)CC2)cc1	-5	4	10	4.3	-14	3	3778
COc1ccc(C(=O)NCCS(=O)(=O)NCc2ccco2)cc1	0	9	-2	0.0	-6	4	?
CNC(=O)N(C)c1ccc(C(O)(C(=O)OC)C(F)(F)F)cc1 (stereo not drawn)	10	5	-4	4.1	2	-9	4200

Fetched by structure from above (3):
SMILES	Mtb hypoxia rep	Mtb hypoxia rep growth	ugtP null kill	RN4220 kill	PrP UTR inh	BJeLR lethal	Autofluor counter
COc1ccc2nc(-c3ccccn3)[nH]c2c1	-3	11	0	2.3	-67	13	3455
COc1ccc(C(=O)NCCS(=O)(=O)NCc2ccco2)cc1	0	9	-2	0.0	-6	4	?
CCN(CC)Cc1c(CC(C)C)oc(C)c1C(=O)O	8	10	-4	9.8	-24	-3	8216

(list continues)
SMILES	Mtb hypoxia rep	Mtb hypoxia rep growth	ugtP null kill	RN4220 kill	PrP UTR inh	BJeLR lethal	Autofluor counter
Cc1c(C(=O)O)cccc1-n1c(C)cc(C=NNC(=O)c2cc3ccccc3o2)c1C	-2	2	3	4.4	·	·	·
O=C(O)c1ccccc1NC(=S)NC(=O)c1cccc2ccccc12	-4	6	1	8.0	-10	3	3959
COC(=O)c1c(F)c(F)c(N2CCOCC2)c(F)c1F	7	7	6	3.9	-31	2	10702
Cc1cccc(-n2nc3c(c2NC(=O)c2c(F)cccc2F)CS(=O)(=O)C3)c1C	-1	-4	8	4.5	-10	-6	4351
CC(NC(=O)c1cc(S(=O)(=O)N2CCCC2)ccc1Cl)c1ccccn1 (stereo not drawn)	-4	0	6	0.8	-12	·	9222
CNCCC(=O)N1c2ccccc2CCc2ccc(NC(=O)OC)cc21	-14	3	11	2.5	5	-5	3988
CC(C)(C)OC(=O)NOCC(=O)N(Cc1ccccc1)CC(O)COc1ccccc1 (stereo not drawn)	1	-1	3	-1.2	12	2	2725
CCc1ccc(-c2nc(SCC(=O)c3c(N)n(C)c(=O)n(C)c3=O)n[nH]2)cc1	-2	-1	-4	-3.3	-22	·	2901
O=C(c1cccc(C(F)(F)F)c1)N1C[C@H]2C[C@@H](C1)c1cccc(=O)n1C2	·	·	-8	7.2	4	7	4140
Cc1ccc(NC(=O)CN(C)C(=O)c2cccc(S(=O)(=O)NCc3ccccc3)c2)cc1	2	2	3	1.3	-49	-6	·
O=C(Cn1nc2ccccc2n1)NN=Cc1cc(Cl)cc([N+](=O)[O-])c1O	15	7	3	9.4	·	·	·
CCCCNC(=S)N(C)/N=C/c1ccccc1C(=O)O	·	·	·	·	-22	3	9121
O=C(CSc1nnc(CNC(=O)c2ccccc2F)o1)NC1CCCCC1	3	-7	9	0.7	-2	-13	4307
COC(=O)c1ccc(COc2ccc(C3C4=C(CCCC4=O)Nc4onc(C)c43)cc2)cc1 (stereo not drawn)	12	-24	25	25	-3	0	2547
CCOC(=O)C(=NNc1cc(Cl)ccc1Cl)N1CCOCC1	-1	1	-16	-2.5	·	·	·

Record cards, as listed above. Order of screens: Mtb hypoxia rep, Mtb hypoxia rep growth, ugtP null kill, RN4220 kill, PrP UTR inh, BJeLR lethal, Autofluor counter
O=C(Cn1nc2ccccc2n1)NN=Cc1cc(Cl)cc([N+](=O)[O-])c1O in the list: 15, 7, 3, 9.4, ·, ·, ·
CNCCC(=O)N1c2ccccc2CCc2ccc(NC(=O)OC)cc21 in the list: -14, 3, 11, 2.5, 5, -5, 3988
O=C(O)c1ccccc1NC(=S)NC(=O)c1cccc2ccccc12 in the list: -4, 6, 1, 8.0, -10, 3, 3959
CCCCNC(=S)N(C)/N=C/c1ccccc1C(=O)O in the list: ·, ·, ·, ·, -22, 3, 9121
O=C(c1cccc(C(F)(F)F)c1)N1C[C@H]2C[C@@H](C1)c1cccc(=O)n1C2 in the list: ·, ·, -8, 7.2, 4, 7, 4140

The listing continues:
SMILES	Mtb hypoxia rep	Mtb hypoxia rep growth	ugtP null kill	RN4220 kill	PrP UTR inh	BJeLR lethal	Autofluor counter
O=C(CSc1ccc2nnc(-c3cccnc3)n2n1)NCC1CCCO1 (stereo not drawn)	10	8	0	4.7	3	-1	5620
COC(=O)c1sccc1NC(=S)N(C)C1CCCCC1	2	-1	6	8.4	-11	1	5175
COc1ccccc1/C=C/c1nc2ccc(OC(C)=O)cc2c(=O)o1	22	11	1	5.4	-7	0	3185
CC1(C)CC(=O)C2=C(C1)NC(=O)CC2c1cc2c(cc1Br)OCO2 (stereo not drawn)	·	·	-1	4.8	-14	2	2153
COc1cc(OC)cc(C(=O)Nc2ccccc2NC(C)=O)c1	·	·	-4	0.5	3	-5	2858
Cc1cnc(NC(=O)CSc2c(Cl)cccc2Cl)s1	·	·	-11	-1.5	-17	2	2987
CC(C)(C)C1CCC(=NNC(=O)CN(c2ccccc2)S(=O)(=O)c2ccccc2[N+](=O)[O-])CC1 (stereo not drawn)	-8	-1	2	-0.4	-9	13	2527
O=C(Cc1ccsc1)N1CCN(S(=O)(=O)c2cccc(F)c2)CC1	3	-2	2	3.4	-15	4	6301
COC(=O)c1cc(S(=O)(=O)NCC2CCN(Cc3ccc(F)cc3)CC2)cn1C	-3	3	3	2.8	-17	2	5612
COc1ccc(OCc2nnc(SCc3ccc(C(=O)O)cc3)o2)cc1	0	4	-2	2.1	-12	-1	3531
CC(=NNC(=O)C(=O)Nc1cccc(C(F)(F)F)c1)c1ccc(Cl)s1	20	3	0	1.7	·	·	·
COc1ccc(NC(=O)CN(C)C(=O)C(C)Sc2ccccc2)cc1 (stereo not drawn)	5	3	5	0.4	-10	-8	4420
CCN(CC(=O)NCc1ccccn1)S(=O)(=O)c1ccc(Cl)cc1	·	·	-1	-0.2	-1	-7	3655
Cc1nc(-c2ccc(S(=O)(=O)Oc3ccccc3Cl)s2)cs1	13	2	19	5.7	-25	2	4115
Cc1cc(N/N=C/c2ccccc2F)nc(NCc2ccccc2)n1	·	·	·	·	-4	-1	5119
CCCCC(CC)C(=O)NCC(C)NC(=O)C(CC)CCCC (stereo not drawn)	-3	2	-2	-0.4	-20	-2	2595
COc1ccccc1CNC(=O)C/C(C)=N/NC(=O)COc1ccc(C)cc1Br	·	·	·	·	-22	10	1956
CC(c1ccccc1)c1nnc(NC(=O)Nc2ccccc2F)s1 (stereo not drawn)	3	6	5	6.8	-29	6	3635
OC1CCCN(CC(O)COc2ccc(-c3ccccc3)cc2)C1 (stereo not drawn)	6	-8	9	-6.8	-33	1	3727
O=C(NCc1cccc(C(F)(F)F)c1)c1cc(-c2ccccc2)nn1CC1CC(c2cccnc2)=NO1 (stereo not drawn)	3	6	10	0.5	5	-10	2853
CCC1Oc2ccccc2N(CC(=O)NCCN2CCCC2)C1=O (stereo not drawn)	6	5	0	-0.9	-6	4	5414
CCCCOc1ccc(C2=NNC(=O)CC2)cc1	-3	-7	12	5.5	22	-9	1904
O=C(Oc1oc(-c2ccco2)nc1C=Nc1ccccc1)c1ccco1	·	·	-3	-4.1	-12	18	4086
CCC(C(=O)c1ccccc1)P(=O)(NN)c1ccccc1 (stereo not drawn)	7	9	7	2.5	·	-7	5874
CCOc1ccc(NC(=O)c2ccc(CC)s2)c([N+](=O)[O-])c1	-7	0	11	9.8	-69	7	3321
Cc1ccc(S(=O)(=O)NN=Cc2ccc(C(=O)O)cc2)cc1	7	2	-2	-17	·	·	·
Cc1nc(CN2CCN(S(=O)(=O)c3c(Cl)cc(Br)cc3Cl)CC2)cs1	4	6	16	-1.7	-25	·	5645
